Source: PubChem BioAssay
YB-1 expr inh – inhibitors of YB-1 gene expression, primary screen, cell-based, fluorescence. AID 434959, 2010. delta delta Cp (YB-1 minus CDIP) (no concentration beside the values). U2OS, qRT-PCR YB-1 vs CDIP delta delta Cp, 16 h; active compounds read high; zero = DMSO, each unit about twofold. 0.37% of 30,000 active;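 active = delta delta Cp rounded down to an integer at or above 3, about 3 SD of DMSO wells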;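 note: higher means less YB-1 transcript or more CDIP transcript relative to DMSO; stock transfer was 100 nL into about 100 µL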
PD-1 reversal – activators reversing PD-1 mediated T-cell inhibition, primary screen, luminescence, primary human CD4 T cells, PD-L1 beads; activation, % (test concentration not listed); 29,000 tested, under 10 active; CellTiter-Glo 96 h; AID 2316, 2010;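 active = replicate mean of 50% or more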;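 note: 0% = median vehicle wells and 100% = positive control; 100 nL library stock added to about 50 µL; numbers are from one replicate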
Hedgehog inh – Hedgehog pathway signaling inhibitors, primary screen, luminescence, Shh-LIGHT2 cells, Gli-luciferase; AID 2313, 2010; Shh-LIGHT2 Gli-luciferase reporter, 30 h; 2.1% of 22,000 active; inhibition, % (no concentration beside the values);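 active = replicate mean of 65% or more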;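 note: pathway switched on by Shh-conditioned medium diluted 1 in 25 in low serum; 100 nL library stock added to about 40 µL; 0% = median of neutral wells and 100% = positive control level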
MITF inh – inhibitors of MITF, primary screen, MITF inhibitor project, cell-based, luminescence; TRPM1 promoter luciferase, 24 h; inhibition, % (test concentration not listed); 0.28% of 37,000 active; AID 2240, 2010;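 active = most replicates at 85% or more, or half of them and the mean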;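 note: human melanocyte line stably carrying TRPM1 promoter luciferase reporter; 0% = vehicle wells and 100% = a positive control; the first replicate is given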
Starred values were filed as active, the others as inactive; x = no result given.

SMILES | YB-1 expr inh | PD-1 reversal | Hedgehog inh | MITF inh
C[C@@H]1CCCCO[C@H](CN(C)S(=O)(=O)c2cccs2)[C@@H](C)CN([C@H](C)CO)C(=O)c2cc(NC(=O)Nc3ccccc3)ccc2O1 | 0.21 | -1.9 | 23 | -8
C[C@H]1CN([C@@H](C)CO)C(=O)c2cccc(NS(C)(=O)=O)c2O[C@H]1CN(C)Cc1ccc(Oc2ccccc2)cc1 | -0.15 | x | 49 | -5
C[C@H](CO)N1C[C@H](C)[C@H](CN(C)Cc2ccc(C(=O)O)cc2)Oc2ccc(NC(=O)Nc3ccc4c(c3)OCO4)cc2CC1=O | -0.08 | 1.5 | -30 | 4
C[C@H]1CN([C@@H](C)CO)C(=O)c2cccc(N(C)C)c2O[C@@H]1CN(C)Cc1ccc(C(=O)O)cc1 | 0.02 | x | -60 | -5
Cc1noc(C)c1NC(=O)Nc1cccc2c1O[C@H](CN(C)C(=O)Nc1ccccc1)[C@@H](C)CN([C@@H](C)CO)C2=O | 0.17 | 0.9 | -14 | -2
C[C@H](CO)N1C[C@H](C)[C@@H](CN(C)S(=O)(=O)c2cn(C)cn2)Oc2ccc(NS(C)(=O)=O)cc2C1=O | 0.046 | 0.5 | -19 | 5
C[C@@H]1CN([C@H](C)CO)C(=O)Cc2cc(NS(=O)(=O)c3ccc(Cl)cc3)ccc2O[C@H]1CN(C)Cc1ccc(-c2ccccc2)cc1 | 0.3 | -1.1 | 0 | -5
CCN(CCS(=O)(=O)c1ccc(Cl)cc1)C(=O)Nc1ccc(Cl)cc1 | -0.24 | 1.2 | -17 | 15
Cc1cccc(C)c1OCC(=O)Nc1cccc(C(=O)O)c1C | x | 1.5 | x | -41
COc1ccc(NC(=O)N(C)C[C@@H]2Oc3ccc(NC(=O)Nc4ccc(C(F)(F)F)cc4)cc3C(=O)N([C@@H](C)CO)C[C@H]2C)cc1 | 0.22 | 0.0 | -3 | 2
C[C@@H]1CN([C@@H](C)CO)C(=O)c2cc(NC(=O)Nc3ccc4c(c3)OCO4)ccc2O[C@H]1CN(C)Cc1ccc(Oc2ccccc2)cc1 | -0.55 | x | x | 9
Cc1ccc(-c2nc3ccccc3s2)cc1NC(=O)COc1ccc(Br)cc1 | x | 0.9 | x | -32
C[C@@H]1CN([C@@H](C)CO)C(=O)Cc2cc(N(C)C)ccc2O[C@@H]1CN(C)Cc1ccc(Cl)c(Cl)c1 | -0.41 | -8.1 | -23 | 33
Cn1nc(CC(=O)Nc2ccc(Oc3ccccc3)cc2)c2ccccc2c1=O | x | -3.8 | x | 71
COc1ccc(S(=O)(=O)N(C)C[C@@H]2Oc3ccc(NS(=O)(=O)c4cccs4)cc3C(=O)N([C@H](C)CO)C[C@@H]2C)cc1 | 0.14 | -3.2 | -6 | -22
C[C@@H]1CN([C@H](C)CO)C(=O)c2cccc(NS(=O)(=O)c3ccccc3)c2O[C@H]1CN(C)C | -0.39 | x | -40 | -5
Nc1ccc(OCC(O)C[n+]2ccccc2)cc1 (stereo not drawn) | -1.2 | 0.2 | x | -2
C[C@H](CO)N1C[C@H](C)[C@@H](CN(C)S(C)(=O)=O)Oc2ccc(NS(=O)(=O)c3cn(C)cn3)cc2C1=O | -0.093 | 2.5 | x | 3
COc1ccc(S(=O)(=O)Nc2cccc3c2O[C@@H](CN(C)Cc2ccc(C(=O)O)cc2)[C@@H](C)CN([C@@H](C)CO)C3=O)cc1 | 0.066 | 0.1 | -33 | -9
C[C@@H]1CN([C@H](C)CO)C(=O)Cc2cc(NC(=O)C3CCCCC3)ccc2O[C@@H]1CN(C)S(=O)(=O)c1cccs1 | -0.012 | -0.1 | 11 | 6
COc1ccc(NC(=O)Nc2ccc3c(c2)C(=O)N([C@H](C)CO)C[C@H](C)[C@H](CN(C)S(=O)(=O)c2ccccc2)OCCCC[C@@H](C)O3)cc1 | -0.28 | -3.4 | 21 | -1
CCC(Sc1nc(C)cc(=O)[nH]1)C(=O)Nc1ccccc1C#N (stereo not drawn) | x | 1.5 | x | 11
O=C(CCn1nc(-c2ccccc2)c2ccccc2c1=O)Nc1cccc(Br)c1 | x | -1.6 | x | 6
C[C@@H]1CN([C@@H](C)CO)C(=O)c2cc(NC(=O)Nc3ccc(F)cc3)ccc2O[C@H]1CN(C)C | -0.14 | x | x | 8
Cc1ccc(S(=O)(=O)Nc2ccc3c(c2)C(=O)N([C@H](C)CO)C[C@@H](C)[C@@H](CN(C)Cc2ccc(-c4ccccc4)cc2)O3)cc1 | 0.0069 | -2.3 | x | 31

Given as tab-separated lines: part of the list above.
mol	YB-1 expr inh	PD-1 reversal	Hedgehog inh	MITF inh
Cc1ccc(-c2nc3ccccc3s2)cc1NC(=O)COc1ccc(Br)cc1	x	0.9	x	-32
C[C@@H]1CN([C@@H](C)CO)C(=O)Cc2cc(N(C)C)ccc2O[C@@H]1CN(C)Cc1ccc(Cl)c(Cl)c1	-0.41	-8.1	-23	33

Carrying on:
SMILES | YB-1 expr inh | PD-1 reversal | Hedgehog inh | MITF inh
C[C@@H]1CN([C@H](C)CO)C(=O)Cc2cc(NS(=O)(=O)c3ccc(Cl)cc3)ccc2O[C@H]1CN(C)S(=O)(=O)c1cn(C)cn1 | 0.043 | 0.2 | 0 | -1
C[C@H]1CN([C@@H](C)CO)C(=O)Cc2cc(NC(=O)Cc3ccccc3)ccc2O[C@@H]1CN(C)S(=O)(=O)c1cn(C)cn1 | -0.3 | x | -25 | 8
CC1(C)Cc2c(sc3ncn4nc(-c5ccccc5)nc4c23)C(C)(C)N1 | -0.56 | -1.6 | -13 | 18
Cc1noc(C)c1NC(=O)N(C)C[C@H]1Oc2c(NS(=O)(=O)c3ccc(Cl)cc3)cccc2C(=O)N([C@@H](C)CO)C[C@H]1C | 0.23 | 0.9 | -17 | -4
CCc1cc(-c2n[nH]c(C)c2-c2nc(C)cs2)c(O)cc1OCc1ccc([N+](=O)[O-])cc1 | x | -3.4 | x | 58
CC(C)(C)C(=O)OC[C@H]1O[C@@H](n2cnc3c(N)ncnc32)C[C@@H]1OC(=O)C(C)(C)C | 8.3* | -0.3 | -30 | -6
C[C@@H]1CCCCO[C@H](CN(C)Cc2ccc(Cl)c(Cl)c2)[C@@H](C)CN([C@H](C)CO)C(=O)c2cc(NC(=O)Nc3ccc(F)cc3)ccc2O1 | -0.36 | x | x | 27
Cc1onc(-c2c(F)cccc2Cl)c1C(=O)N[C@@H]1C(=O)N2C(C(=O)O)C(C)(C)S[C@H]12 (stereo partly drawn) | 0.14 | x | -68 | -32
Cc1cccc(N(CC(=O)Nc2cccc([N+](=O)[O-])c2)S(C)(=O)=O)c1C | x | 1.5 | x | -3
COc1ccc(NC(=O)CSc2nc3c(cc2C#N)C(=O)CCC3)cc1 | x | -1.4 | x | -16
C[C@@H]1CN([C@H](C)CO)C(=O)c2cc(NC(=O)Nc3cccc4ccccc34)ccc2O[C@@H]1CN(C)S(=O)(=O)c1ccc(F)cc1 | -0.45 | 0.5 | 3 | -3
Cc1ccccc1N=C(N)N=C(N)N | 0.4 | -0.7 | x | -21
Cc1nc(-c2ccncc2)nc(NCCNc2cc(C(F)(F)F)ccn2)c1Cl | 0.24 | -0.5 | -32 | 0
CC(C)NC(=O)N(C)C[C@H]1Oc2ccc(NS(=O)(=O)c3cn(C)cn3)cc2C(=O)N([C@H](C)CO)C[C@@H]1C | -0.1 | 1.7 | 15 | -1
Cc1sc2ncnc(SCC(=O)Nc3cccc(C(F)(F)F)c3)c2c1C | x | -1.9 | x | 3
COc1c(O)cc([C@@H]2Oc3cc(O)cc(O)c3C[C@@H]2O)cc1O | 0.15 | 0.5 | -3 | -15
C[C@H]1CN([C@@H](C)CO)C(=O)Cc2cc(NC(=O)Cn3cnnn3)ccc2O[C@H]1CN(C)C | -1.1 | x | 41 | -22
CCCCCCCC/C=C\C/C=C\C/C=C\CCCC(=O)O | 0.59 | 5.9 | -61 | 19
CC(C)S(=O)(=O)c1cnc(N2CCOCC2)nc1N | 0.012 | 0.2 | 35 | 11
Cn1c(SCC(=O)Nc2ccc(F)c(Cl)c2)nnc1-c1ccncc1 | x | 0.8 | x | -10
C[C@@H]1CN([C@@H](C)CO)C(=O)c2cccc(NC(=O)Nc3ccc(F)cc3)c2O[C@H]1CN(C)S(C)(=O)=O | -0.59 | -2.2 | 9 | -9
COc1ccc(NC(=O)N(C)C[C@@H]2Oc3c(NC(=O)c4ccc(-c5nccs5)cc4)cccc3C(=O)N([C@@H](C)CO)C[C@H]2C)cc1 | 0.092 | 2.6 | 18 | 3
COc1c(O)cc2c(=O)oc3c(OC)c(O[C@@H]4OC[C@@H](O)[C@H](O)[C@H]4O)cc4c(=O)oc1c2c34 | -0.55 | -0.8 | -21 | -6
CC(C)NC(=O)N(C)C[C@@H]1Oc2ccc(NC(=O)C3CC3)cc2CC(=O)N([C@@H](C)CO)C[C@@H]1C | -0.29 | 0.5 | 14 | -6
C[C@H]1CN([C@@H](C)CO)C(=O)Cc2cc(NC(=O)C3CCCCC3)ccc2O[C@H]1CN(C)Cc1ccc(Oc2ccccc2)cc1 | -0.94 | -5.6 | 28 | -10

Remaining list, next part
SMILES | YB-1 expr inh | PD-1 reversal | Hedgehog inh | MITF inh
C[C@@H]1CCCCO[C@H](CN(C)C(=O)Nc2cccc3ccccc23)[C@@H](C)CN([C@H](C)CO)C(=O)c2cc(NS(C)(=O)=O)ccc2O1 | 0.12 | x | 1 | 4
COc1ccc(OC)c(NC(=O)CSc2nnnn2C)c1 | x | 1.7 | x | 8
C[C@H]1CN([C@@H](C)CO)C(=O)c2cccc(NC(=O)C3CCCCC3)c2O[C@@H]1CN(C)Cc1ccc(C(=O)O)cc1 | -0.056 | 0.3 | -35 | 0
C[C@H]1CN([C@@H](C)CO)C(=O)Cc2cc(NC(=O)Cn3cnnn3)ccc2O[C@H]1CN(C)Cc1ccc(C(F)(F)F)cc1 | 0.095 | 0.2 | x | 10
C[C@H](CO)N1C[C@H](C)[C@H](CN(C)CC2CCCCC2)Oc2ccc(NS(=O)(=O)c3cccs3)cc2C1=O | -0.031 | 0.2 | 2 | -5
Cc1noc(C)c1NC(=O)Nc1ccc2c(c1)CC(=O)N([C@@H](C)CO)C[C@H](C)[C@H](CN(C)C(=O)Nc1c(C)noc1C)O2 | 0.29 | 0.3 | -19 | -4
[N-]=C=N[n+]1ccc2ccccc2c1C(=O)c1ccc(Cl)cc1 | 0.48 | -4.7 | -72 | 0
C[C@@H]1CN([C@H](C)CO)C(=O)Cc2cc(NC(=O)Nc3cccc4ccccc34)ccc2O[C@@H]1CN(C)C(=O)Nc1ccc2c(c1)OCO2 | -0.036 | -2.1 | -9 | -6
Cc1noc(C)c1NC(=O)Nc1ccc2c(c1)CC(=O)N([C@H](C)CO)C[C@@H](C)[C@H](CN(C)S(C)(=O)=O)O2 | 0.52 | 0.2 | -33 | 4
Cc1sc2ncn(CC(=O)Nc3ccccc3C(F)(F)F)c(=O)c2c1C | x | -1.0 | x | 12
C[C@@H]1CN([C@@H](C)CO)C(=O)Cc2cc(NC(=O)c3ccncc3)ccc2O[C@@H]1CN(C)S(=O)(=O)c1ccccc1 | -0.16 | 0.0 | -10 | 5
COc1ccc(S(=O)(=O)N(C)C[C@H]2Oc3c(NC(=O)c4cc(C)nn4C)cccc3C(=O)N([C@H](C)CO)C[C@@H]2C)cc1 | -0.14 | x | -35 | -5
O=c1[nH]c(CSc2nnc(-c3ccccc3)n2C2CCCCC2)nc2ccccc12 | x | -3.1 | x | 8
CC1=CC(c2ccoc2)c2c(oc(N)c(C#N)c2=O)S1 (stereo not drawn) | 0.014 | -0.5 | 9 | -7
CC(Oc1ccccc1)C(=O)Nc1c[nH]c(=O)[nH]c1=O (stereo not drawn) | x | 2.7 | x | 5
C[C@@H]1CN([C@H](C)CO)C(=O)Cc2cc(NC(=O)CCN3CCOCC3)ccc2O[C@H]1CN(C)Cc1ccccc1 | -0.061 | -0.4 | -17 | -6
C[C@@H]1CN([C@H](C)CO)C(=O)Cc2cc(NC(=O)CCCCCC(=O)Nc3ccccc3N)ccc2O[C@@H]1CN(C)Cc1ccc(Oc2ccccc2)cc1 | -0.67 | -0.9 | x | 13

By substructure: the entries above containing bromine.
SMILES | YB-1 expr inh | PD-1 reversal | Hedgehog inh | MITF inh
Cc1ccc(-c2nc3ccccc3s2)cc1NC(=O)COc1ccc(Br)cc1 | x | 0.9 | x | -32
O=C(CCn1nc(-c2ccccc2)c2ccccc2c1=O)Nc1cccc(Br)c1 | x | -1.6 | x | 6

Compounds shown so far that contain an NH in an aromatic ring:
SMILES | YB-1 expr inh | PD-1 reversal | Hedgehog inh | MITF inh
CCC(Sc1nc(C)cc(=O)[nH]1)C(=O)Nc1ccccc1C#N (stereo not drawn) | x | 1.5 | x | 11
CCc1cc(-c2n[nH]c(C)c2-c2nc(C)cs2)c(O)cc1OCc1ccc([N+](=O)[O-])cc1 | x | -3.4 | x | 58
O=c1[nH]c(CSc2nnc(-c3ccccc3)n2C2CCCCC2)nc2ccccc12 | x | -3.1 | x | 8
CC(Oc1ccccc1)C(=O)Nc1c[nH]c(=O)[nH]c1=O (stereo not drawn) | x | 2.7 | x | 5

An excerpt; count on the stated rates, not on these rows.
